Screens from PubChem.
D2 potentiator = human D2 receptor positive allosteric modulation | P14416 | DiscoveRx D2 beta-arrestin cells, luminescence, 90 min; 100% = 57 uM dopamine signal | potentiation, % (test concentration not listed) | 360,000 compounds, 0.23% hits | AID 624464; active = potentiation of 50% or more; inconclusive = 30% to 50%; inactive = 30% or less;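 note: compound concentration not given in the record; tested on top of an EC20 dose of dopamine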
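PathHunter D2 cells, attached overnight at 37 deg C, received compound in DMSO plus dopamine at EC20 (50 nM final) for 90 min at 37 deg C. Beta-arrestin recruitment was read as luminescence after 1 h with detection reagent at ambient temperature.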
Six1-Eya2 blk = inhibitors of human Six1/Eya2 interaction; AlphaScreen GST-Six1/His-Eya2 binding, biochemical; hits give low values; control for the full effect not named in the record; AID 651725; Q15475+O00167; activity change, % (test concentration not listed); 360,000 compounds, 0.56% hits; in the data active = activity change below about -65%; inconclusive = about -30% to -65%; inactive = above about -30%; note: % is set by controls: 0 for no effect and ±100 for the full control effect
Target sequence (O00167 whole entry, looked up): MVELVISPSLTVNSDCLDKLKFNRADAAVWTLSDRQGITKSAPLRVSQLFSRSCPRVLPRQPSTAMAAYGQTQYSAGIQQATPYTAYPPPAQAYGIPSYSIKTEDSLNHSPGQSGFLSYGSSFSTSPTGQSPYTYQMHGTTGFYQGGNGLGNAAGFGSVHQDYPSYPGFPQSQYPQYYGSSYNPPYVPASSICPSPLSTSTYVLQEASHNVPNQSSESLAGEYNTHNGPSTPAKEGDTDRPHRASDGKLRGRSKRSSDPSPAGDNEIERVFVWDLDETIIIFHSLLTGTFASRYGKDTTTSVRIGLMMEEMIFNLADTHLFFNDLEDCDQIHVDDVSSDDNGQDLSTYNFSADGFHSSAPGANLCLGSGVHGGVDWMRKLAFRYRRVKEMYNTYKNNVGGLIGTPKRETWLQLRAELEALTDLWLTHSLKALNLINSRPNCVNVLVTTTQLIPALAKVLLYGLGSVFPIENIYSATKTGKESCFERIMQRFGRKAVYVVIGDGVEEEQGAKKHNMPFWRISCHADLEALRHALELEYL
Target sequence (Q15475 whole entry, looked up): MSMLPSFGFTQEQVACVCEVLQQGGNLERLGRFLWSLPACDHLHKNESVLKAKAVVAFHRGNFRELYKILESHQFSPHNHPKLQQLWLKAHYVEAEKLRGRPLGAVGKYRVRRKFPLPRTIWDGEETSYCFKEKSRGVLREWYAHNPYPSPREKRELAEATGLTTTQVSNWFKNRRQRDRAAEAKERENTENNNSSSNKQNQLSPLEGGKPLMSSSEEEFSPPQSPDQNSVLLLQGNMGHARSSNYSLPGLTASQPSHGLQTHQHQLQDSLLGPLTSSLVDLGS
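AlphaScreen luminescence read after one hour at 37 °C in darkness. Pin-transferred compounds met GST-Six1 and His-Eya2 protein (5X stock 250 nM/500 nM) plus glutathione donor and Ni-chelate acceptor beads (5X, 50 ug/mL).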
CtBP-E1A inh = inhibitors of CtBP/E1A interaction; AlphaScreen GST-E1A/His-CtBP binding, 1536-well; hits give low values; control for the full effect not named in the record; activity change, % (no concentration beside the values); 340,000 compounds, 0.49% hits; AID 651724; in the data active means activity change below about -65%; inconclusive means about -30% to -65%; inactive means above about -30%; note: % is set by controls: 0 for no effect and ±100 for the full control effect
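GST-E1A and His-tagged CtBP (125 nM each as 5X stock) were preincubated with pin-transferred compound for 2 h at 37 °C in the dark, then glutathione donor and nickel acceptor beads were added for 1 h before AlphaScreen reading.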
D2 agonist = activates the human D2 dopamine receptor. AID 624465. activation, % (concentration not given with the values). DiscoveRx PathHunter D2 beta-arrestin, luminescence, 90 min; 100% = 57 uM dopamine signal. P14416. 360,000 compounds, 0.084% hits; in the data active = activation above about 40%; inconclusive = about 15% to 40%; inactive = below about 15%; note: the text of the record calls up to 30% inactive
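Agonist mode: compounds alone added to overnight-plated D2 PathHunter cells for 90 min at 37 C, with 57 uM final dopamine (EC100) defining full response. Beta-arrestin recruitment detected by chemiluminescent reagent, read after 1 h at ambient temperature.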
gsp antag = antagonists of gsp mutant (McCune-Albright syndrome) | gsp-mutant cells, cAMP HTRF, 30 min; control for the full effect not named in the record | Potency, µM (top dose mostly 76.9 µM), for inactives: at the highest dose activity change, negative = inhibition, hits mostly inhibitors | 340,000 compounds, 0.4% hits | AID 624288; active = falling curve of any shape with a large fitted effect; inconclusive = falling curve, mostly with a smaller effect; inactive = flat or rising curve; cell line not stated here;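 note: intracellular cAMP measured with PDE inhibitor Ro 20-1724 present during compound exposure; potency is the fitted concentration of half-maximal effect; % is set by controls: 0 for no effect and ±100 for the full control effect; nearly all actives have a fitted effect of over 65% in size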
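Measurement of cellular cAMP by homogeneous time-resolved fluorescence following a 30 min compound exposure at 37C. The PDE inhibitor […] was present throughout; the assay buffer was DPBS with 0.05% BSA and 0.005% Tween 20.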
gsp ag = agonists of gsp mutant (McCune-Albright syndrome); gsp mutant cells, cAMP HTRF, 30 min; control for the full effect not named in the record; 340,000 compounds, 0.13% hits; Potency, µM (highest dose often 76.9 µM), inactives show top-dose activation (cAMP increase), usual class: activators; AID 624287; active = well fitted activation curve with a large enough effect; inconclusive = small, poorly fitted or top-dose-only effect, or another doubt; inactive = no such curve, though single readings can be large or run the other way; cell line not stated here;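 note: phosphodiesterase inhibitor Ro 20-1724 added with compounds to block cAMP breakdown; potency is the fitted concentration of half-maximal effect; nearly all actives have a fitted effect of over 60% in size; about a fifth of the inactives were tested at one dose only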
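Cells stably selected in G418 were plated at 2000/well, grown 16-24 hr, then given compounds in DMSO with the PDE inhibitor […] (300 uM solution added) for 30 min at 37C; cAMP was read by HTRF.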
* marks the source's active call; other numbers are inactive results; ? = inconclusive; nt = no result given; [ ] = dose if it differs, or a comment. Rows are unselected, and some 1.4% of all compounds hit somewhere here.

D2 potentiator	Six1-Eya2 blk	CtBP-E1A inh	D2 agonist	gsp antag	gsp ag	SMILES
-11	2	7	-5.4	9%	-30%	CC(NS(C)(=O)=O)C(c1cccs1)N1CCN(Cc2ccccc2)CC1 (stereo not given)
-3	-80*	16	4.8	?	-23%[15.4 µM]	CCN(CC)c1ccc(N=Cc2ccccc2[N+](=O)[O-])cc1
-3	-3	-5	-1.2	6%	-35%[inhibitor]	Cc1csc(NC(=O)C2CCN(C(=O)CSc3nnc(C)n3Cc3ccccc3)CC2)n1
-6	-11	-12	-4.1	15%	11%	NC(=O)c1ccc(NC(=O)CSC(=O)c2ccccc2)cc1
-15	-7	3	-7.4	10%	-6%	Cc1c(NC(=S)NCc2ccc(F)cc2)cccc1[N+](=O)[O-]
-11	-1	1	-4.1	5%	11%[15.4 µM]	O=C(NC1CCS(=O)(=O)C1)c1ccc(Br)s1 (stereo not given)
-18	-4	-2	-1.8	1%	-5%	CC(C)Oc1ccc(OCCCN2CCCCCC2)cc1
-7	2	nt	-3.3	5%	-47%	Cc1cc2c(c(C)c1CCO[C@@H]1O[C@H](CO)[C@@H](O)[C@H](O)[C@H]1O)C(=O)[C@@H](C)[C@@H]2O
-9	1	-1	-2.8	0%	-3%[15.4 µM]	CCc1ccc(C(O)(CC)C(CN2CCOCC2)c2ccccc2)cc1 (stereo not given)
-14	-8	nt	-5.8	-1%	7%	Cc1noc(C)c1C(=O)N1CCN(c2ccc(OCc3ccccc3)cc2)CC1
4	-4	nt	0.0	-3%	-1%	CC(C)(C)c1ccc(C(=O)NCCC(=O)Nc2cc(Cl)ccc2N2CCOCC2)cc1
-14	-9	-3	0.6	?	2%	Cc1ccc2nc(NC(=O)C3CCN(C(=O)c4ccc(F)cc4)CC3)sc2c1
-6	-2	nt	-5.1	-7%	4%	COc1ccc(-c2ccc(C#N)c(SCC(=O)NCCc3ccccc3)n2)cc1OC
16	2	1	-5.9	4%	-27%	O=C(c1ccc(NS(=O)(=O)c2cccs2)cc1)N1CCOCC1
-12	8	-1	-1.9	2%	-1%	COc1ccc(-c2nn(C)c(=O)c3ccccc23)cc1CNS(C)(=O)=O
-17	-7	-8	-1.0	-19%	-27%	O=C(CSc1nnc(CNc2ccc(F)cc2)n1Cc1ccccc1)NCc1ccccc1
-2	-6	3	-6.8	-12%	-150%[inhibitor]	CC(C)(C)OC(=O)C[C@H]1C/C=C\C[C@H](CC(=O)N(CCO)Cc2ccccc2)C(=O)N[C@H](C(C)(C)C)COC1=O
-14	0	7	4.3	-8%	nt	CCOC(=O)C1=C(C)N(CCCC(=O)O)C(=O)NC1c1ccc(Cl)cc1Cl (stereo not given)
2	3	6	-3.3	nt	nt	Cc1ccc(S(=O)(=O)N2C[C@H]3[C@H]4C(=O)N(c5ccccc5)C(=O)[C@H]4CC(=O)[C@H]3[C@@H]2c2ccccc2F)cc1
-4	5	-14	-2.0	nt	-66%[inhibitor]	CC1(C)CN(Cc2ccccc2)C(=O)[C@H]1CC(=O)Nc1ccc(Br)cc1
2	-1	5	4.6	5%	-4%[15.4 µM]	Nc1cccc(NC(=O)CCC(=O)NCc2ccco2)c1
-2	13	1	-3.9	5%	?	O=C(c1ccco1)N1CCN(C(=O)C2CC2)CC1
-21	-4	-2	-2.1	7%	19%	CN1C(=O)Cc2cc(S(=O)(=O)N3CCOCC3)ccc21
-30	-3	11	-6.9	-8%	3%	CC(C)Oc1cccc(C(=O)NC(=S)Nc2cccc(C(F)(F)F)c2)c1
-8	5	-1	9.5	-2%	14%	CCOc1ccccc1NC(=O)NNS(=O)(=O)c1cc(C)ccc1C
-6	-2	-3	0.1	-11%	?	COc1ccc(-c2cc(=O)oc3c(C)c(OCc4nn[nH]n4)ccc23)cc1
8	-1	7	-0.8	10%	-19%	N#CC1(NC(=O)COc2ccc3ccc(=O)oc3c2)CCCCC1
-5	5	6	-3.0	5%	-18%	CC(=O)Oc1ccccc1C1OCCN1C(C)=O (stereo not given)
-2	5	0	2.8	?	5%	O=C(CCN1C(=O)/C(=C\c2ccccc2)SC1=S)NNC(=O)c1cccnc1
-1	0	nt	0.6	5%	0%	Cc1cc(=O)cc(C)n1-c1ccccc1N
-5	11	1	-2.6	3%	-22%	O=C(NNS(=O)(=O)c1ccc2ccccc2c1)C1CCN(Cc2ccccc2)CC1
-3	-7	0	-2.7	-14%	5%[15.4 µM]	CCCO/N=C1/C(=O)N(c2ccccc2)c2ccccc21
8	51	1	-10	-24%	-2%[15.4 µM]	COc1cc(OC)c(/C=N/NC(=O)Cn2nc([N+](=O)[O-])cc2C)c(OC)c1
-7	3	2	-1.5	1%	nt	COc1cccc(-c2ncc3ccccc3c2COC(=O)c2ccc(Br)cc2)c1
-24	-19	1	-5.7	20%	-1%	CCOC(=O)/C(=C\c1cccc(O)c1)c1nc2sc(C)c(C)c2c(=O)[nH]1
-3	-18	-10	-2.4	10%	-65%[inhibitor]	COc1cccc(NC(=S)NCc2ccccn2)c1
-13	20	17	-3.0	1%	29%	CSc1ncccc1C(=O)OCC(=O)c1ccc2c(c1)NC(=O)CO2
-7	-16	3	-2.8	?	-97%[inhibitor]	Cn1c(OCc2cccnc2)nc2c1c(=O)n(Cc1ccc(F)cc1)c(=O)n2C
-13	-7	-8	-0.2	5%	?	Cc1csc(NC(=O)CSc2nc3nc(C)cc(C)n3n2)n1
-7	1	1	-1.1	11%	16%	COc1ccc(NC(=O)Cn2nnc(C(=O)NCc3ccc(C)cc3)c2N)cc1Cl
-11	-13	-18	-1.7	8%	-18%	COc1ccc(C2c3c(-c4cc(Cl)c(C)cc4O)n[nH]c3C(=O)N2Cc2cccnc2)cc1OC (stereo not given)
-1	3	0	-6.1	15%	11%	CCN(CC(=O)NCc1ccc(Cl)cc1)C(=O)c1c(C)noc1C
-15	0	nt	-7.2	2%	8%	Cc1cc(C)cc(NC(=S)/C(=C(\[O-])c2ccc(Cl)cc2Cl)[n+]2ccc(C(C)(C)C)cc2)c1
-7	1	-4	-1.2	6%	nt	Nc1ccccc1C#CCCCCO
-7	-1	-16	-3.1	0%	-6%[15.4 µM]	CC(C)(C)OC(=O)NCCc1nnc(SCC(=O)Nc2ccc(Br)cc2)o1
-11	5	6	-3.7	17%	0%[15.4 µM]	Cc1ccc(S(=O)(=O)N2CCCC2CNC(=O)C(=O)NCCN2CCOCC2)cc1 (stereo not given)
-5	-8	nt	-5.6	-14%	-41%	COc1ccccc1-n1c(-c2ccc(Cl)cc2)c[nH]c1=S
-16	-13	-20	0.0	-6%	-4%	O=C(CCC(=O)c1cccs1)NNC(=O)c1ccccc1O
8	-2	0	0.2	-12%	1%[15.4 µM]	O=C(NCc1ccc2c(c1)OCO2)c1cc(-c2ccccn2)nc2ccccc12
-3	2	0	-4.4	-9%	-1%	CCN(CC)CCCNC(=O)C1c2cc(OC)c(OC)cc2C(=O)N(C)C1c1cccnc1 (stereo not given)
-6	-3	-10	-4.0	-3%	2%[15.4 µM]	Cc1ccccc1NC(=O)c1cc([N+](=O)[O-])ccc1NCCN1C(=O)CCC1=O
-7	-3	-1	-1.6	nt	-46%[inhibitor]	Cc1cc(NC(=O)COc2ccc3c(C)c(C)c(=O)oc3c2)no1
2	-3	-10	-1.6	2%	1%	COc1ccc(Nc2cc(C)nc(N3CCOCC3)n2)cc1
-4	-8	-3	1.2	0%	6%[15.4 µM]	Cc1ccc(S(=O)(=O)N(CCC(=O)NCc2ccc(S(N)(=O)=O)cc2)c2ccccc2)cc1
14	-2	12	1.0	?	-83%[inhibitor]	Nc1c(N)c2ccccc2oc1=O
-3	0	7	-5.3	4%	0%[15.4 µM]	CCCn1nnc(NC(=O)/C=C/c2ccco2)n1
-6	-3	-6	-3.8	-9%	-31%[inhibitor]	O=C(N/N=C/c1cn(-c2ccccc2)nc1-c1ccccc1)c1ccco1
-9	-4	2	-1.7	-1%	-4%	Cc1ccc(CN2CCN(Cc3ccccn3)CC2CCO)cc1 (stereo not given)
-6	-7	5	-3.1	nt	-29%	Clc1ccc2nc3ccccc3cc2c1
0	-2	1	3.5	-14%	?	O=C(CCNC(=O)c1ccccc1Cl)Nc1nc(-c2ccccc2Cl)cs1

(further entries)
D2 potentiator	Six1-Eya2 blk	CtBP-E1A inh	D2 agonist	gsp antag	gsp ag	SMILES
-5	-1	-3	2.5	0%	18%	Cc1cccc(NC(=O)CN2C(=O)CCSc3ccc(S(=O)(=O)N4CCOCC4)cc32)c1C
-6	-5	2	-2.9	nt	-55%[inhibitor]	CCCCCCN1C[C@@H](O)[C@H](n2cc(C3CC3)nn2)C[C@@H]1c1ccc(Cl)cc1
-2	-3	2	-1.0	2%	-18%	COc1ccc(Cl)cc1N(C(C)C(=O)NC1CCCC1)S(C)(=O)=O (stereo not given)
3	9	1	-1.4	13%	-46%[inhibitor]	O=C(NCCc1cnccn1)C1CCC(=O)N(Cc2ccc(Cl)cc2)C1 (stereo not given)
-16	-7	-2	-3.1	-1%	-8%[15.4 µM]	CCN(CC(=O)Nc1cc(Cl)ccc1C)C(=O)CSCc1ccccc1
0	5	0	-2.5	14%	15%	CC(=O)Nc1ccc(NC(=O)C2C3CCC(C3)C2C(=O)O)cc1 (stereo not given)
-17	-7	-3	0.8	1%	9%[15.4 µM]	COc1ccc(OC)c(NC(=O)C2CCN(S(=O)(=O)c3ccc4c(c3)OCCO4)CC2)c1
11	1	8	-0.5	5%	1%	CCOCCCNC(=O)CCNS(=O)(=O)c1ccc(C)cc1
-2	0	4	-2.3	-3%	-17%	O=C(N/N=C/c1c(F)c(F)c(F)c(F)c1F)c1cccc(S(=O)(=O)N2CCOCC2)c1
-1	3	nt	0.1	5%	5%	CCOc1ccc(CCNS(=O)(=O)c2ccc3c(c2)oc(=O)n3C)cc1OCC
0	1	5	1.1	-13%	11%	N#Cc1cccc(NC(=O)C2CCCN(C(=O)c3ccc(Cl)cc3)C2)c1 (stereo not given)
-9	0	10	-3.1	7%	13%	CSc1n[nH]c(NCc2ccc(Cl)cc2)n1
-4	7	4	1.4	3%	21%	O=C(O)Cn1c2ccccc2c2ccccc21
-13	7	24	-0.2	2%	-7%	COc1ccccc1CNC(=O)COC(=O)c1ccc(S(=O)(=O)N2CCCCC2)cc1
